# GLA inh pH 4.5: inhibitors of human alpha-galactosidase A at pH 4.5. activity change, negative = inhibition, % at 105 µM. purified enzyme, 4-MU-alpha-Gal fluorescence, pH 4.5. 230,000 tested, under 10 active; inconclusive = small, poorly fitted or top-dose-only inhibition, or a rising curve; inactive = flat fitted curve, though single readings scatter; no compound was filed as active;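 also: 0% = full activity with enzyme and -100% = basal without enzyme; dose as in the result columns while the protocol names 77 µM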
# The depositor's hits bear a star. The list is partial; rates above refer to the full screens.
SMILES,GLA inh pH 4.5
CC[C@H]1C(=O)OC[C@H]1Cc1cncn1C,-2
CC(C)CC(CN)CC(=O)O (configuration not stated),3
